# Calb biofilm kill: mixture kills Candida albicans biofilm cells | C. albicans biofilm persisters + clotrimazole, fluorescence viability; primary screen in compound mixtures of four per well | inhibition, % at 7.6 µM | 120,000 compounds, 0.02% hits | AID 1242;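 active = inhibition above 30.3% in the primary screen of four-compound pools, then above 30% when the compound was retested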;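 note: compounds exposed to preformed 24 h biofilms for 48 h; the number belongs to the whole pool; some results filed as inactive read as strong as hits; inactives centre near 12; 0% = biofilm with clotrimazole alone and 100% = kill control; retested singly at about 60 µM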
#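 Incubation: 24 h biofilm formation, then 48 h compound exposure, 37 °C | Material: C. albicans biofilms | Buffer or medium: RPMI/MOPS medium, pH 7.0 | Measured by: 2-h Alamar Blue fluorescence, 535/590 nm excitation/emission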
# Active calls of the source: *.
[1] CCN1c2nc3ccccn3c(=O)c2CC2(C(=O)N(C)C(=O)N(C)C2=O)C1C (stereo not given)
  Calb biofilm kill = -7

[2] Nc1ccccc1C(=O)OCc1ccc([N+](=O)[O-])cc1
  Calb biofilm kill = 18

[3] CC(C)(C)P(=O)(N1CCOCC1)N1CCOCC1
  Calb biofilm kill = 6

[4] Cc1ccc(S(=O)(=O)NC(Cc2cnc[nH]2)C(=O)O)cc1 (stereo not given)
  Calb biofilm kill = 12

[5] Cc1ccc(N2C(=O)NC(=O)/C(=C\c3cccn3C(C)(C)C)C2=O)cc1
  Calb biofilm kill = 5

[6] O=C(CCCn1c(=O)[nH]c2cc(Cl)ccc2c1=O)N1CCC2(CC1)OCCO2
  Calb biofilm kill = 4

[7] Cc1cc(/C=C2\C(=O)NC(=O)N(Cc3ccccc3)C2=O)c(C)n1-c1ccc(Cl)c(C(=O)O)c1
  Calb biofilm kill = 9

[8] C=CCn1c(O)c(C(CC)=NCCN2CCN(C(=S)NC)CC2)c(=O)[nH]c1=O
  Calb biofilm kill = 11

[9] COc1ccccc1N1CCN(Cc2cnc(-c3ccccc3)[nH]2)CC1
  Calb biofilm kill = 14

[10] CC(C)n1c(=O)c(C=Nc2cccc([N+](=O)[O-])c2)c(O)n(CCc2ccccc2)c1=O
  Calb biofilm kill = 8

[11] CCCCn1c(=O)c(C(=O)Nc2nnc(C(C)C)s2)c(O)c2ccccc21
  Calb biofilm kill = 24

[12] CN1CCN(c2ncnc3nc[nH]c23)CC1
  Calb biofilm kill = 10

[13] COc1cc2c(cc1OC)-c1c(OC)c(OC)c(OC)c3ccnc(c13)C2=O
  Calb biofilm kill = 15

[14] O=C(Nc1ccccc1)N1CC2CC(C1)c1cccc(=O)n1C2 (stereo not given)
  Calb biofilm kill = 15

[15] COc1ccc2c(c1)c(CCN)c(C)n2Cc1ccccc1
  Calb biofilm kill = 14

[16] Cc1ccc(C(=O)NC2CC3CCC(C2)N3)cc1 (stereo not given)
  Calb biofilm kill = 7

[17] N#CC1=C(N)Oc2cc(O)ccc2C1c1ccc2c(c1)OCO2 (stereo not given)
  Calb biofilm kill = 11

[18] O=C(CNC(=O)OCc1ccccc1)NCC(=O)Nc1ccc(Br)cc1C(=O)c1ccccc1
  Calb biofilm kill = 11

[19] CC(=O)Cc1ccc(OC(C)C)cc1
  Calb biofilm kill = 18

[20] O=[N+]([O-])c1ccc(N2CCCC2)c(F)c1Br
  Calb biofilm kill = 4

[21] CC(C)c1ccc(N2C(=O)NC(=O)/C(=C\C=C\c3ccco3)C2=O)cc1
  Calb biofilm kill = 20

[22] O=C1NC(=S)NC(=O)C12C(c1ccccc1)NC(=S)NC2c1ccccc1 (stereo not given)
  Calb biofilm kill = 6

[23] CC(=O)OC1(c2ccccc2)CCN(C)CC1(C)C (stereo not given)
  Calb biofilm kill = 11

[24] c1ccc2cc(C3N4CCCN34)ccc2c1 (stereo not given)
  Calb biofilm kill = 4

[25] C[C@H]1O[C@@H](O[C@H]2[C@@H](O)C[C@H](O[C@H]3[C@@H](O)C[C@H](O[C@H]4CC[C@@]5(C)[C@H](CC[C@@H]6[C@@H]5CC[C@]5(C)[C@@H](C7=CC(=O)OC7)CC[C@]65O)C4)O[C@@H]3C)O[C@@H]2C)C[C@H](O)[C@@H]1O
  Calb biofilm kill = 9

# Exported tab-delimited: five of the compounds above.
cpd	Compound	Calb biofilm kill
18	O=C(CNC(=O)OCc1ccccc1)NCC(=O)Nc1ccc(Br)cc1C(=O)c1ccccc1	11
24	c1ccc2cc(C3N4CCCN34)ccc2c1 (stereo not given)	4
14	O=C(Nc1ccccc1)N1CC2CC(C1)c1cccc(=O)n1C2 (stereo not given)	15
7	Cc1cc(/C=C2\C(=O)NC(=O)N(Cc3ccccc3)C2=O)c(C)n1-c1ccc(Cl)c(C(=O)O)c1	9
9	COc1ccccc1N1CCN(Cc2cnc(-c3ccccc3)[nH]2)CC1	14

# Back to the main list with the 5 entries that preceded the break.
[21] CC(C)c1ccc(N2C(=O)NC(=O)/C(=C\C=C\c3ccco3)C2=O)cc1
  Calb biofilm kill = 20

[22] O=C1NC(=S)NC(=O)C12C(c1ccccc1)NC(=S)NC2c1ccccc1 (stereo not given)
  Calb biofilm kill = 6

[23] CC(=O)OC1(c2ccccc2)CCN(C)CC1(C)C (stereo not given)
  Calb biofilm kill = 11

[24] c1ccc2cc(C3N4CCCN34)ccc2c1 (stereo not given)
  Calb biofilm kill = 4

[25] C[C@H]1O[C@@H](O[C@H]2[C@@H](O)C[C@H](O[C@H]3[C@@H](O)C[C@H](O[C@H]4CC[C@@]5(C)[C@H](CC[C@@H]6[C@@H]5CC[C@]5(C)[C@@H](C7=CC(=O)OC7)CC[C@]65O)C4)O[C@@H]3C)O[C@@H]2C)C[C@H](O)[C@@H]1O
  Calb biofilm kill = 9

[26] CC(=O)N(C1=NCCCS1)c1ccccc1Cl
  Calb biofilm kill = 7

[27] CNCC(C)c1ccccc1 (stereo not given)
  Calb biofilm kill = 10

[28] O=C(c1ccc(C(F)(F)F)cc1)C1CCCN(Cc2ccc(CO)o2)C1 (stereo not given)
  Calb biofilm kill = 18

[29] CN(C)/C=C(\C=[N+](C)C)c1[nH]ncc1[N+](=O)[O-]
  Calb biofilm kill = 5

[30] O=[N+]([O-])c1cc(S(=O)(=O)c2ccc(O)c([N+](=O)[O-])c2)ccc1O
  Calb biofilm kill = 17

[31] COC(=O)C(O)(c1ccc(NC(=S)NC(=O)c2ccc(Cl)cc2Cl)c(C)c1)C(F)(F)F (stereo not given)
  Calb biofilm kill = 11

[32] COc1ccc(CC(=O)Nc2ccc3c(C(F)(F)F)cc(=O)oc3c2)cc1OC
  Calb biofilm kill = 9

[33] CN(C)[C@@H]1C(=O)C(C(N)=O)=C(O)[C@@]2(O)C(=O)C3=C(O)c4c(O)ccc(Cl)c4[C@@](C)(O)C3C[C@@H]12 (stereo not given in full)
  Calb biofilm kill = -2

[34] CN(C)C(=O)OCc1n(C)cc[n+]1C
  Calb biofilm kill = 9

[35] CC12CN3CCN(CC(C3)/C1=N/NC(N)=O)C2
  Calb biofilm kill = 19

[36] CCOP(=O)(OCC)Oc1cc(C)c(N(C)C)c(C)c1
  Calb biofilm kill = 18

[37] O=c1c2ccccc2[se]n1-c1ccccc1
  Calb biofilm kill = 18

# Given as tab-separated lines: entries from further up.
no.	canonical_smiles	Calb biofilm kill
35	CC12CN3CCN(CC(C3)/C1=N/NC(N)=O)C2	19
36	CCOP(=O)(OCC)Oc1cc(C)c(N(C)C)c(C)c1	18

# Copied from the list:
# Reading of compound 29 under Calb biofilm kill: 5
# Reading of compound 33 under Calb biofilm kill: -2

# Only part of the results is shown; the hit share may differ from the screen's.
